Mtb H37Rv = Mycobacterium tuberculosis H37Rv growth inhibition, putative kinase inhibitor library, confirmatory dose response (AID 2842). one-dose inhibition, % at 10 µg/mL; IC90 in µg/mL for titrated hits. hit rate 5.2% among 24,000. M. tuberculosis H37Rv growth inhibition; higher % means a stronger effect; some inactives read as strong as hits;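 active = confirmed in a dose series; about a fifth of its hits are not listed in these tables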;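 note: bacteria incubated one week before Alamar blue readout; 0% = bacteria only wells and 100% = bacteria with high antibiotic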
An asterisk follows results filed as active.

SMILES	Mtb H37Rv
COc1ccc(C(=O)NNc2nc3c(F)cc(F)cc3s2)cc1	2%
O=C(Cn1cnc2c(cnn2-c2cccc(Cl)c2)c1=O)Nc1ccc(Cl)cc1	-10%
O=C(Nc1ccc(F)c(F)c1)c1ccc2nc[nH]c2c1	22%
Cc1cc2cc(CCNC(=O)c3ccccc3Cl)c(=O)[nH]c2cc1C	4%
COc1ccc(-c2cc(=O)c3ccc(NC(C)=O)cc3o2)cc1	5%
Cc1c(C)n2c(SCC(=O)c3ccccc3)nnc2[nH]c1=O	-3%
COc1ccc2nc(Nc3nc4ccc(C(C)C)cc4s3)sc2c1	77%
Cc1ccc(Nc2nc(Nc3cccc(F)c3)nc(N3CCOCC3)n2)cc1C	14µg/mL*
CCOC(=O)c1sc(NC(=O)CSc2ncnc3ccccc23)c(C(=O)OCC)c1C	-3%
CN1CCN(c2nc3c(c(=O)[nH]c(=O)n3C)n2CCSc2nc3ccccc3o2)CC1	12%
OCCCc1nc2n(n1)C(c1ccccc1Cl)C=C(c1ccc(Br)cc1)N2 (stereo not drawn)	9%
O=C(NCCC1=CCCCC1)c1ccc(NC2=NC3CS(=O)(=O)CC3S2)cc1 (stereo not drawn)	-8%
N#Cc1c(N)c(C(=O)c2ccc(F)cc2)n2ccccc12	13%
CC(=O)Nc1cccc(NC(=O)CSc2ncnc3ccccc23)c1	-5%
O=C(Nc1nc(-c2ccc(Br)s2)cs1)c1ccc(S(=O)(=O)N2CCCCC2)cc1	11%
CCOC(=O)c1cnc2c(C)c(Cl)ccc2c1NCc1cccnc1	-2%
O=C(NCCN1CCOCC1)c1cc(=O)[nH]c2ccc(S(=O)(=O)N3CCCC3)cc12	-16%
CCOC(=O)c1c(C)[nH]c(C(=O)N/N=C\c2ccccc2O)c1C	0%
COc1ccc(SCC(=O)Nc2nc3ccc4sc(C)nc4c3s2)cc1	8%
CCC(C)Sc1nc2c(c(=O)[nH]1)C(c1ccc(OC)cc1)C1=C(CCCC1=O)N2 (stereo not drawn)	5%

The closing 2 records of the section above open the next one:
SMILES	Mtb H37Rv
COc1ccc(SCC(=O)Nc2nc3ccc4sc(C)nc4c3s2)cc1	8%
CCC(C)Sc1nc2c(c(=O)[nH]1)C(c1ccc(OC)cc1)C1=C(CCCC1=O)N2 (stereo not drawn)	5%
COc1ccc(C(=O)Nc2c(N)nc(SCC(=O)Nc3ccc([N+](=O)[O-])cc3)[nH]c2=O)cc1OC	-3%
CCOC(=O)c1oc2ccccc2c1NC(=O)Cc1ccc(OC)cc1	10%
O=C(Nc1ccc(S(=O)(=O)Nc2nccs2)cc1)c1ccc(F)c(F)c1	-2%
CC(C)c1nnc(NC(=O)/C=C/c2cccs2)s1	-5%
O=C(O)CCC(=O)Nc1ccc(NC(=S)NC(=O)c2cccc([N+](=O)[O-])c2)cc1	-3%
O=C1CC(NS(=O)(=O)c2cccs2)CN1c1ccccc1 (stereo not drawn)	-1%
CCC(C)C1C(C#N)=C(N)OC2=C1C(=O)CC(C)(C)C2 (stereo not drawn)	7%
CCOc1ccc(NC(=O)CSc2nc3c(c(=O)n2C)SC(C)C3)cc1 (stereo not drawn)	1%
CCC(C)n1c(C)cn2c3c(=O)[nH]c(=O)n(C)c3nc12 (stereo not drawn)	-2%
Cc1c(C(N)=O)sc2ncn(CCc3ccccc3)c(=O)c12	2%
CCOc1ccc(NC(=O)c2c(Cl)ccc(Cl)c2Cl)cc1	12µg/mL*
CC1Cc2nc(SCC(=O)NC3CCCCC3)n(C)c(=O)c2S1 (stereo not drawn)	-8%
COCCNC(=O)Cn1cnc2c(nnn2-c2ccc(C)c(Cl)c2)c1=O	-9%
O=C(Nc1nc(-c2cc3ccccc3oc2=O)cs1)c1ccc(C(=O)c2ccccc2)cc1	-13%
CCN(C(=O)c1ccc(S(=O)(=O)N2CCC(C)CC2)cc1)C1CCS(=O)(=O)C1 (stereo not drawn)	-6%
CN(C)CCCN1C(=O)C(=O)/C(=C(/O)c2ccncc2)C1c1cccc(Br)c1 (stereo not drawn)	-2%
COc1cc(-c2cc(=NC(Cc3cnc[nH]3)C(=O)O)c3cc(C)ccc3o2)ccc1O (stereo not drawn)	20%
Cc1nnc(NC(=O)CSc2nc3c(c(=O)n2-c2ccc(F)cc2)SC(C)C3)s1 (stereo not drawn)	-1%
COc1ccc(Cn2cc3c(-c4ccc(C)cc4)nnc-3c3cc(C)ccc32)cc1	13%
NC(=O)c1ccsc1NC(=O)C1CCCCC1	77%

Carrying on:
SMILES	Mtb H37Rv
COC(=O)c1c(NC(=O)c2oc3ccc(C)cc3c2C)sc2c1CCC2	17%
O=C(CC1S/C(=N/N=C\c2ccco2)NC1=O)c1ccc(Br)cc1 (stereo not drawn)	51%
CCOC(=O)Cc1csc(NC(=S)NC(=O)c2ccc(C(=O)c3ccccc3)cc2)n1	1%
COC(=O)c1ccc(/C=C(\C#N)c2nc(-c3cccc([N+](=O)[O-])c3)cs2)cc1	0%
O=C(Nc1nnc(C23CC4CC(CC(C4)C2)C3)s1)c1ccccc1C(F)(F)F	-2%
Cn1c(=O)c2c(SCC(=O)Nc3ccccc3)nc(-c3ccc([N+](=O)[O-])cc3)nc2n(C)c1=O	-1%
O=C(O)c1cc(-c2ccc(-c3ccc(F)cc3)o2)nc2ccccc12	11%
O=C(CCCc1nnc2c(=O)n(-c3ccc(Cl)cc3)ccn12)NCCN1CCCC1	-1%
COc1ccccc1-c1ccc(SCC(=O)Nc2cccc(C(C)=O)c2)nn1	-6%
O=C1Nc2ccc(S(=O)(=O)Nc3ccc(Oc4ccccc4)cc3)c3cccc1c23	-17%
Cc1cc(C)c(-c2csc(NC(=O)c3ccc(S(=O)(=O)N4CCc5ccccc5C4)cc3)n2)c(C)c1	-1%
COC(=O)C1CCN(C(c2cccc(OC)c2)c2sc3ncnn3c2O)CC1 (stereo not drawn)	-4%
CCOc1ccc(NC(=O)CSC2=C(C#N)C(c3cccs3)C3=C(CC(C)(C)CC3=O)N2)cc1 (stereo not drawn)	53%
CCOC(=O)c1nn(-c2ccc(OC)cc2)c(=O)c2c(NC(=O)C(C)C)scc12	-2%
CC(=O)Nc1ccc(NC(=O)C(=O)Nc2cc3c4c(c2)CCC(=O)N4CCC3)cc1	1%
N#Cc1ccc(C(=O)Nc2nnc(-c3ccccc3)o2)cc1	71%
COc1ccc(NS(=O)(=O)c2ccc3[nH]c(=O)cc(C)c3c2)cc1	-14%
COc1cccc(C(=O)Nc2nnc(-c3ccc(F)cc3)s2)c1OC	-3%
COc1ccc(N/C=C(\C#N)C(=O)NCc2ccccc2)cc1Cl	-10%
COc1ccc(NC(=O)c2oc3ccccc3c2NC(=O)COc2ccc(F)cc2)cc1OC	-4%

14 entries from above, sorted by molar mass, descending:
SMILES	Mtb H37Rv
Cc1cc(C)c(-c2csc(NC(=O)c3ccc(S(=O)(=O)N4CCc5ccccc5C4)cc3)n2)c(C)c1	-1%
O=C(Nc1nc(-c2ccc(Br)s2)cs1)c1ccc(S(=O)(=O)N2CCCCC2)cc1	11%
COc1ccc(C(=O)Nc2c(N)nc(SCC(=O)Nc3ccc([N+](=O)[O-])cc3)[nH]c2=O)cc1OC	-3%
Cc1nnc(NC(=O)CSc2nc3c(c(=O)n2-c2ccc(F)cc2)SC(C)C3)s1 (stereo not drawn)	-1%
CN(C)CCCN1C(=O)C(=O)/C(=C(/O)c2ccncc2)C1c1cccc(Br)c1 (stereo not drawn)	-2%
COc1ccc(SCC(=O)Nc2nc3ccc4sc(C)nc4c3s2)cc1	8%
COC(=O)c1ccc(/C=C(\C#N)c2nc(-c3cccc([N+](=O)[O-])c3)cs2)cc1	0%
CCOC(=O)c1cnc2c(C)c(Cl)ccc2c1NCc1cccnc1	-2%
CC1Cc2nc(SCC(=O)NC3CCCCC3)n(C)c(=O)c2S1 (stereo not drawn)	-8%
CCOC(=O)c1oc2ccccc2c1NC(=O)Cc1ccc(OC)cc1	10%
COc1ccc(C(=O)NNc2nc3c(F)cc(F)cc3s2)cc1	2%
Cc1c(C)n2c(SCC(=O)c3ccccc3)nnc2[nH]c1=O	-3%
CC(C)c1nnc(NC(=O)/C=C/c2cccs2)s1	-5%
NC(=O)c1ccsc1NC(=O)C1CCCCC1	77%

(cont.)
mol	Mtb H37Rv
O=C(CCCCCn1c(=O)[nH]c2ccsc2c1=O)NCCc1ccccc1	-5%
O=C(OCc1nc2ccccc2s1)c1ccc(N2C(=O)CCC2=O)cc1	-14%
Cc1c(Cc2ccc3c(c2)OCO3)sc(NC(=O)C2CCCCC2)c1C#N	0%
COc1cccc(-c2nnc(NC(=O)C3CCN(S(=O)(=O)c4ccc(F)cc4)CC3)o2)c1	1%
COC(=O)C(C)Sc1ccc2nnc(-c3ccc(OC)cc3)n2n1 (stereo not drawn)	-7%
Cc1cc(OC(=O)c2ccc([N+](=O)[O-])cc2)c([N+](=O)[O-])c(=O)[nH]1	-1%
Cc1cc(N2C(=O)C(O)=C(C(=O)c3ccc(C)o3)C2c2ccc(C(C)(C)C)cc2)no1 (stereo not drawn)	-12%
NS(=O)(=O)c1ccc(NC(=O)NC2CC(=O)N(c3ccc(F)cc3)C2)cc1 (stereo not drawn)	6%
Cc1cc(F)ccc1S(=O)(=O)Oc1ccc2oc3ccccc3c2c1	-4%
O=C(Nc1ccc([N+](=O)[O-])cc1)c1c[nH]c(=O)n(-c2ccc(F)cc2)c1=O	-6%
Clc1cccc(CSc2nnc3ccc(-c4ccc5c(c4)OCO5)nn23)c1	-5%
O=C(COc1ccccc1)Nc1nnc(-c2ccc3c(c2)CCCC3)o1	6.5µg/mL*

Next section.
mol	Mtb H37Rv
O=C(Nc1cc(C(F)(F)F)cc(C(F)(F)F)c1)c1cnc2sccn2c1=O	-3%
Fc1ccc2nc(Nc3nc4ccc(Cl)cc4s3)sc2c1	8%
Cc1ccc(NCC(=O)Nc2ncc(Cc3ccccc3Cl)s2)cc1C	58%
COc1ccc(CNC(=O)c2c(C)oc3c2C(=O)c2ccccc2C3=O)cc1	1.1µg/mL*
NC(=O)c1ccsc1NC(=O)c1ccc(-c2ccccc2)cc1	20%
COc1ccc(OC)c2sc(NC(=O)c3ccc(Cl)s3)nc12	1%
CC(=O)C(C)n1c(=O)c2c(nc3n(-c4ccc(C)c(Cl)c4)c(C)c(C)n23)n(C)c1=O (stereo not drawn)	-17%
O=C(CSc1nnc(CNC(=O)c2ccccc2)n1-c1ccccc1)c1ccccc1	10%
COc1ccc(CCC(=O)OCC(=O)c2cccc(OC)c2)cc1	0%
O=C(CC1CCCC1)Nc1c(C(=O)Nc2ccc3c(c2)OCO3)oc2ccccc12	-4%
COc1ccccc1C1C2=C(COC2=O)Nc2c1c(=O)[nH]c(=O)n2CC(C)C (stereo not drawn)	-2%
O=c1[nH]ncc(N/N=C\c2ccc(F)cc2)c1Br	-3%

Following part.
mol	Mtb H37Rv
O=C(Nc1c(C(=O)Nc2ccc([N+](=O)[O-])cc2)oc2ccccc12)c1cccs1	26%
Fc1cccc2sc(Nc3nc(-c4ccncc4)cs3)nc12	8%
CCOC(=O)c1nn(-c2ccc(F)cc2)c(=O)c2c(NC(=O)c3ccc(OCC)c(OCC)c3)scc12	63%
O=C(/C=C\c1ccc2c(c1)OCO2)Nc1c2c(nn1-c1ccc(Cl)cc1)CSC2	52%
c1cc2c(cc1Nc1nc(N3CCOCC3)nc(N3CCOCC3)n1)OCO2	-15%
Cc1ccc2cc(CCNC(=O)c3ccccc3C(F)(F)F)c(=O)[nH]c2c1	7%
CC1CCN(Cc2nc3c([nH]2)c(=O)n(C)c(=O)n3C)CC1	-3%
Cn1c(=O)[nH]c(=O)c2c1nc(N1CCN(c3ccccc3)CC1)n2CCCSc1nc2ccccc2o1	-3%
O=C(CSc1nc2ccccc2s1)c1cccc([N+](=O)[O-])c1	17%
Nc1nc(SCC(=O)NCCc2ccccc2)[nH]c(=O)c1NC(=O)c1ccc(F)cc1	-5%
O=C1CCc2cc(S(=O)(=O)Nc3ccc(Cl)c(Cl)c3)cc3c2N1CC3	6%
Nc1nc(SCC(=O)N2CCCCC2)[nH]c(=O)c1NC(=O)c1cccs1	5%

The results go on.
mol	Mtb H37Rv
O=C(CC1C(=O)N(c2ccc(F)cc2)C(=O)N1NC(=O)c1ccccc1)NCc1ccccc1 (stereo not drawn)	-4%
COc1ccc(OC)c2sc(N3CCN(c4nc5ccccc5s4)CC3)nc12	0%
CC1(C)CC(=O)c2sc(NC(=O)Nc3ccccc3)nc2C1	4%
CCOC(=O)c1c(NC(=O)CC2Nc3cccc4cccc(c34)NC2=O)sc(C)c1C (stereo not drawn)	-4%
COc1ccc(CC(=O)Nc2c3c(nn2-c2ccc(OC)cc2)CS(=O)C3)cc1 (stereo not drawn)	-2%
Cc1ccccc1Cn1cc(SCC(=O)Nc2nc3ccccc3s2)c2ccccc21	18%
CCn1c(SCC(=O)c2ccc([N+](=O)[O-])cc2)nc2c1c(=O)[nH]c(=O)n2C	3%
CCOc1ccc(NC(=O)c2c[nH]c(=O)n(-c3ccc(F)cc3)c2=O)cc1	4%
COC(=O)c1cccc(Nc2nc(-c3cccnc3)nc3ccccc23)c1	8%
COc1cc(C(=O)Nc2sc3c(c2C#N)CCN(C(C)=O)C3)cc(OC)c1OC	-10%
O=C(NC1CCCCC1)C1CCC(Cn2c(=O)[nH]c3ccsc3c2=O)CC1 (stereo not drawn)	-1%
CCOc1ccc(C(=O)Nc2c(N)nc(SCc3ccc(Cl)c(Cl)c3)[nH]c2=O)cc1	-2%

The listing continues.
mol	Mtb H37Rv
CCOC(=O)c1nn(-c2ccc(C)cc2)c(=O)c2c(NC(=O)CCC3CCCC3)scc12	12%
Cn1cnnc1SCc1cc(=O)c(OCC(=O)c2ccc(Cl)cc2)co1	-6%
COc1ccc(Cl)cc1NC(=O)CSc1nc2c(c(=O)n1-c1ccc(C)cc1)SCC2	11%
CCOC(=O)c1oc2ccccc2c1NC(=O)C1CC1	19%
Cc1ccccc1-c1nnc(NC(=O)CCc2ccccc2)s1	1%
CCc1cnc2c(c1OC)c(=O)n(CC#N)c(=O)n2C	-4%
CCc1ccc(NC(=O)c2oc3ccccc3c2NC(=O)C23CC4CC(CC(C4)C2)C3)cc1	0%

Screening results from PubChem BioAssay.

These rows are one share of the data; the hit share may differ from the screen's.
